# Assay outcomes as filed in PubChem.
# HNF4A DNA FP: change in binding of human HNF4 alpha to DNA; P41235; HNF4a-FITC DNA binding, fluorescence polarization, 1 h; activity change, % at 10 µM; actives 0.3% (n = 360,000); AID 1224865; in the data active means activity change above about 30%, passing the limit was not always enough;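 further: controls were the assay level and a saturating level of protein; the project sought stronger binding though the title names inhibitors; some compounds called inactive have numbers as strong as hits; positive values seem to mean higher polarization but the record does not say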
# Target sequence (P41235 whole entry, looked up): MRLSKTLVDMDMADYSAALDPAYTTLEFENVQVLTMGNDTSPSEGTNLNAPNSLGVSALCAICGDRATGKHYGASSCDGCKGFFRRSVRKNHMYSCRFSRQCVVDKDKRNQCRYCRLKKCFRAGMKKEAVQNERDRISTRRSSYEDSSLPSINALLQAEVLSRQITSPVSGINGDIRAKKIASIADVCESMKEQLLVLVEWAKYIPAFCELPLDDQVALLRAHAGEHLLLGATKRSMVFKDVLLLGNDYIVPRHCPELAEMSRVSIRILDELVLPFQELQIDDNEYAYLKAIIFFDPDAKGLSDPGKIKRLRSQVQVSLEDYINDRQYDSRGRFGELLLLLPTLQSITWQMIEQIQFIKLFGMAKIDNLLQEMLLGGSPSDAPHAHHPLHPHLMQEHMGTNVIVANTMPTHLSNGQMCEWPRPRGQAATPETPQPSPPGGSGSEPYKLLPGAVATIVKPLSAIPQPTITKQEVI
# ALR inh: human ALR oxidase inhibition via reduced H2O2; inhibition, % (concentration not given with the values); P55789; actives 3.8% (n = 290,000); purified ALR, DTT oxidation, H2O2 HRP-luminol luminescence;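 active means mean and each replicate at 75% or more; inconclusive means only one of the two met; inactive means neither met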;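 further: stock transfer was 7.5 nL into about 7.5 µL; 0% = neutral wells and 100% = wells with inactivated enzyme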
# Calb FLC: C. albicans growth modulation with fluconazole. actives 0.57% (n = 300,000). C. albicans CaCi-2 (fluconazole-resistant clinical isolate) + fluconazole, Alamar Blue growth, 48 h. AID 1979. growth inhibition, % (no concentration beside the values);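 active means most replicates above 75%; inconclusive means exactly half above 75%; inactive means most below 75%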;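 further: all wells also contain fluconazole at 8 µg/ml as a sub-toxic cotreatment; 0% = median of DMSO wells and 100% = median of geldanamycin control wells; wells of about 8 µL received 7.5 nL stock; the first replicate is given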
# RanGTP-Impb inh: inhibitors of RanGTP-importin-beta interaction, primary screen, biochemical, FRET, CFP-Ran, YFP-importin-beta, homogeneous; cell-free CFP-Ran/YFP-importin-beta FRET ratio; inhibition, % (no concentration beside the values); actives 1.1% (n = 300,000); AID 2216;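 active means most replicates above 15%; inconclusive means exactly half above 15%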;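 further: 0% = DMSO wells and 100% = Ran loaded with GDP instead of GTP; wells of about 40 µL received 100 nL stock; the first replicate is given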
# Vif A3G: HIV-1 Vif–A3G interaction blockers – biochemical, TR-FRET, GST-Vif 1-94, biotin-A3G peptide, dose response retest, primary screen (AID 1117319) | TR-FRET GST-Vif / biotin-A3G peptide binding; higher % means a stronger effect; test concentration not given here; strong numbers were not always called active | one-dose inhibition, %; IC50 in µM for titrated hits | actives 0.57% (n = 260,000);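 active means above the screen mean plus three standard deviations and confirmed in dose response; inconclusive means results disagree or hit not tested in dose response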;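 further: Vif residues 1-94 fused to GST binding biotinylated APOBEC3G peptide 110-148; 0% = full assay without inhibitor and 100% = GST in place of GST-Vif; retest series ran down from 100 µM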
# LANA-H2A inh: blocks KSHV LANA binding to histone H2A/H2B; Q9QR71; cell-free LANA-H2A/H2B peptide, fluorescence polarization; inhibition, % (test concentration not listed); actives 0.6% (n = 320,000); AID 2629; in the data active means inhibition mostly above about 10%, no sharp cut-off; inactive means mostly below about 6.7%;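 further: stock transfer was 7.5 nL into about 10 µL; 0% = median of vehicle wells and 100% = median of positive control wells; one replicate is shown; the record names a cut of 25% in any replicate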
# Beta2AR agonist: agonists of human beta-2 adrenergic receptor inducing internalization | response, % (concentration not given with the values) | Am2.2-beta2AR cells, FAP receptor internalization, flow cytometry; reference of the scale not given here | actives 0.43% (n = 340,000) | P07550;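 active means response above a set limit, near 3 SD of response in nonfluorescent compounds, cut at about 42% in these data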;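 further: stock transfer was 100 nL into about 11 µL; a reference agonist was the positive control; negative values mostly stem from fluorescent compounds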
# Target sequence (P07550 whole entry, looked up): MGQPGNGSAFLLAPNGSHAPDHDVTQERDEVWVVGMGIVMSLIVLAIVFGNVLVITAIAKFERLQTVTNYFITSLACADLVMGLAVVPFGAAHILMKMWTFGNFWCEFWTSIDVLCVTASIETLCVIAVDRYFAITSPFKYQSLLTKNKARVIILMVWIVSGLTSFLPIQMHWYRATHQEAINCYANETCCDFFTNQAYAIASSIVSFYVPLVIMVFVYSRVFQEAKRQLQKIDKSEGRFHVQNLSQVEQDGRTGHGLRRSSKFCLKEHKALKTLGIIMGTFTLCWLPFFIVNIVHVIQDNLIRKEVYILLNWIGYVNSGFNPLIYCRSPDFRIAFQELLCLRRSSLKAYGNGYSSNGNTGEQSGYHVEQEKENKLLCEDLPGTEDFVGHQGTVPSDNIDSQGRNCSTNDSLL
# Numbers without * were called inactive; ? = inconclusive; / = no result given; & = joins results of further samples. Compounds were not picked by outcome. About 6.3% of those tested had a hit in this group.
# A first look, four compounds:
no.	Compound	HNF4A DNA FP	ALR inh	Calb FLC	RanGTP-Impb inh	Vif A3G	LANA-H2A inh	Beta2AR agonist
1	COc1ccc(NC(=O)CCCn2cnc3ccccc3c2=O)cc1	-2.2	/	6.5	0.9	-2.9%	-4.1	8.9
2	Cc1cccc(C)c1NC(=O)Cn1nnc(-c2ccc(CN3CCC(C)CC3)cc2)n1	-0.1	/	?	-0.5	-7.2%	-1.3	-5.9
3	O/N=C(\c1ccc(Cl)cc1)c1cc2ccccc2o1	-0.6	7.3	-13.9	?	?	-1.8	11.0
4	O=C1Nc2ccccc2C1=O	2.3	-5.0	-14.5	2.9	/	-5.1	-6.4

# The list itself (from the top)
no.	Compound	HNF4A DNA FP	ALR inh	Calb FLC	RanGTP-Impb inh	Vif A3G	LANA-H2A inh	Beta2AR agonist
1	COc1ccc(NC(=O)CCCn2cnc3ccccc3c2=O)cc1	-2.2	/	6.5	0.9	-2.9%	-4.1	8.9
2	Cc1cccc(C)c1NC(=O)Cn1nnc(-c2ccc(CN3CCC(C)CC3)cc2)n1	-0.1	/	?	-0.5	-7.2%	-1.3	-5.9
3	O/N=C(\c1ccc(Cl)cc1)c1cc2ccccc2o1	-0.6	7.3	-13.9	?	?	-1.8	11.0
4	O=C1Nc2ccccc2C1=O	2.3	-5.0	-14.5	2.9	/	-5.1	-6.4
5	COc1ccc(-n2ncc3c2CC(C)(C)CC3NC(=O)CCCN2CCCC2=O)cc1 (configuration not stated)	0.4	-5.7	-4.2	2.3	-8.7%	3.0	-1.3
6	COC(=O)C1CCN(C(=O)Cc2c(OC)ccc3cc(Br)ccc23)CC1	7.2	-25.0	5.3	-2.8	-9.8%	1.7	-29.3
7	CCOc1ccc(NC(=O)Nc2cccn(Cc3ccccc3)c2=O)cc1	-2.6	-7.1	21.1	-2.1	-3.7%	0.9	-5.0
8	CCN(CC)CCNC(=O)C(=O)Nc1ccc(C(=O)OC)cc1	1.2	/	-2.8	-0.1	-2.8%	1.2	-4.7
9	CCOC(=O)N1CCN(c2c(N3CCN(c4cccc(C(F)(F)F)c4)CC3)c(=O)c2=O)CC1	-5.5	0.4	-11.8	2.6	-2.8%&-10.2%	5.4	-5.5
10	Cc1ccc(CN2CCN(Cc3cn[nH]c3-c3cccc(F)c3)CC2CCO)o1 (configuration not stated)	-2.0	-15.6	12.7	1.9	-10.7%	2.4	-1.6
11	C[C@@H]1CCC(=O)N(CC[C@H](Sc2ccc(Br)cc2)c2ccccc2)CC1	3.3	-4.9	/	/	/	2.4	9.4
12	COc1cc(C(=O)Oc2ccccc2/C=N/NC(=O)c2ccc(Cl)cc2Cl)cc(OC)c1OC	-0.2	-2.1	-3.1	-0.6	-5.0%&-9.4%	1.1	-8.2
13	O=C(Nc1ccc(F)cc1)c1cccc(NC(=O)C2C3CC4OC(=O)C2C4C3)c1 (configuration not stated)	-0.8	-4.9	5.5	6.0	0.8%	0.9	-6.6
14	CN(c1ccc(C(=O)N2CCOCC2)cc1)S(C)(=O)=O	-1.9	-1.3	-9.3	1.1	-0.8%	-5.7	4.0
15	CCc1ccc(C(=O)COC(=O)c2cnc(C)cn2)cc1	-0.5	-6.1	3.4	-6.6	2.2%	-0.3	-7.8
16	CCOc1ccc(-n2cc(-c3ccccc3)c3c(=O)[nH]cnc32)cc1	-1.1	-6.5	2.4	-1.6	/	-0.2	-3.1
17	O=C(CCC(=O)N1CCN(c2ccc(O)cc2)CC1)c1ccc(Br)cc1	/	40.8	?	6.2	20.7%	-1.8	/
18	CCc1ccc(C(C)NC(=O)/C=C/c2ccc(Br)cc2)cc1 (configuration not stated)	0.5	-26.9	?	-0.9	1.8%	-3.3	-12.2
19	Oc1cccc(-n2nnnc2SCc2ccccc2F)c1	1.9	3.7	13.8	-1.9	-11.0%	-1.0	5.5
20	CCc1ccccc1NC(=O)c1ccoc1C	3.4	/	4.5	1.2	-1.1%	-0.2	14.1
21	COc1ccc(NC(=O)CSc2nc(C)cs2)cc1	2.1	-14.7	106.0*	2.1	/	-10.5	3.7
22	CCOC(=O)[C@@H]1[C@H]2COc3ccccc3[C@@H]2N2C(=O)N(c3ccc(F)cc3)C(=O)[C@]12C	0.8	-4.1	-0.5	-4.9	/	-6.0	-2.5
23	CS(=O)(=O)N(CC(=O)N1CCCC1)Cc1ccc(Cl)cc1	3.1	/	-1.7	-2.0	10.4%	1.4	-0.7
24	CC(=O)Nc1ccc(C(=O)NNC(=O)CCc2ccccc2)cc1	-1.1	-4.0	1.4	-2.7	26.1%	1.9	-12.4
25	CC(=O)Nc1ccc(S(=O)(=O)N[C@@H](C)C(=O)OCc2ccc(Cl)cc2)cc1	-4.4	-8.6	-14.8	-3.3	2.3%	-0.1	10.2
26	CC(C)(C)OC(=O)C[C@@H]1C/C=C\C[C@H](CC(=O)NCCO)C(=O)NC[C@@H](c2ccccc2)OC1=O	1.1	-3.8	/	/	/	6.9	-3.5
27	CN(C)CCCCCNCCCNC(=O)/C=N\O	3.1	-9.9	10.7	-0.5	-3.0%	5.0	-0.4
28	C=CCN(CC=C)C(=O)c1cccc(S(=O)(=O)N2c3ccccc3CC2C)c1 (configuration not stated)	-7.2	-6.4	0.5	2.2	-11.2%	-5.2	-5.8
29	CC(C)(C)OC(=O)NCc1nc(N)n[nH]1	-0.1	-4.1	28.2	-3.1	29.5%	-0.1	-2.8
30	CCCCNC(=O)C1CCCN(S(=O)(=O)c2ccc(S(=O)(=O)NCC(C)C)cc2)C1 (configuration not stated)	0.8	-3.5	7.2	-1.6	0.0%	0.1	-5.0
31	CC(C)CC(c1nnnn1CC1CCCO1)N1CCN(Cc2ccc3c(c2)OCO3)CC1 (configuration not stated)	-2.1	-4.8	-4.0	2.2	8.0%&5.0%	-3.3	-8.4
32	Cc1cc(C)n2nc(Nc3ccccc3)cc2n1	1.4	36.6	-6.8	-4.8	3.7%	-24.5	-36.0
33	CCOc1ccc(C(=O)NCCCN2CCCC2=O)cc1	0.1	-11.6	6.4	3.0	16.0%	1.1	-2.1
34	CC1CCCN(C(=O)c2ccc(OC3CCN(CCc4ccccc4)CC3)cc2)C1 (configuration not stated)	-1.5	-2.3	-1.7	1.2	5.2%	-1.8	-15.9
35	COc1cc(C(c2c(C)[nH][nH]c2=O)c2c(C)[nH][nH]c2=O)ccc1OC(=O)c1cccc([N+](=O)[O-])c1	2.6	-3.4	/	/	?	4.8	1.9
36	OCCN(CCO)c1nc(-c2ccccc2)nc2c1oc1ccccc12	5.7	-6.4	-18.0	4.8	-9.7%	-2.9	-5.0
37	COc1cccc(OCC(=O)N2CCC3(CC2)CC(=O)c2ccccc2O3)c1	0.5	-1.4	3.4	-3.7	3.3%	-0.9	5.1
38	O=C(Cc1ccc(-n2c(=O)c3ccccc3n(CC(=O)Nc3ccc(F)cc3F)c2=O)cc1)NCc1ccco1	-2.1	-4.0	-18.8	2.8	-5.4%	-2.5	7.6
39	O=[N+]([O-])c1ccc(S(=O)(=O)NCC(c2ccco2)N2CCc3ccccc3C2)cc1 (configuration not stated)	-4.4	-0.7	2.0	5.1	6.4%	2.2	3.3
40	CC(C)[C@H](NC(=O)C1CCN(S(=O)(=O)c2ccccc2)CC1)C(=O)NCc1ccccn1	-3.6	-3.8	2.4	1.3	/	-1.2	-2.1
41	Cc1cc(C)c(NC(=O)COC(=O)C2CCC(=O)N2)c(C)c1 (configuration not stated)	2.0	-3.0	34.4	4.4	/	2.3	-1.0
42	COc1cc(C)ccc1OCCCOc1ccccc1Br	-3.6	0.9	8.3	8.2	6.1%	0.0	-11.6
43	Cc1cc(/C=C2/SC(=S)N(c3cccc(C(F)(F)F)c3)C2=O)c(C)n1-c1cccnc1	63.6*	-4.3	3.7	3.4	/	-5.8	/
44	Cc1ccc(-c2csc(NC(=O)CSc3nc(C)cc(=O)[nH]3)n2)cc1	/	98.9*	-0.8	-1.3	-0.2%	-2.3	/
45	CC(=O)Nc1ccc(OCC(O)CN2C(C)(C)CC(O)CC2(C)C)cc1 (configuration not stated)	1.9	-1.4	-7.2	5.9	-3.9%	-3.0	6.1
46	CCS(=O)(=O)Nc1ccc(Cc2ccc(NS(=O)(=O)CC)cc2)cc1	-3.3	-7.8	-2.9	2.1	1.3%	5.0	-4.0
47	COc1ccccc1NC(=O)CS(=O)(=O)c1cn(CC(=O)N2CCCC2)c2ccccc12	1.6	-61.2	3.0	-1.2	/	-0.8	-4.1
48	CC(C)(C)NC(=O)c1nc2nc(-c3ccccc3)cc(C(F)(F)F)n2n1	-1.8	-5.1	24.9	-3.6	3.6%	7.2	-13.6
49	COc1ccc(-c2cc3nc(-c4ccccc4)cc(N4CCC5(CC4)OCCO5)n3n2)cc1	1.1	-5.4	2.4	3.0	-197.3%	-0.7	2.3
50	S=C(NCc1ccc(Cl)cc1)NN1CCOCC1	0.3	-2.2	-1.4	-2.1	-5.5%	-1.6	7.9

# Next entries:
no.	Compound	HNF4A DNA FP	ALR inh	Calb FLC	RanGTP-Impb inh	Vif A3G	LANA-H2A inh	Beta2AR agonist
51	CN1CCN(C(=O)CCC(=O)NCc2ccc(F)cc2)CC1	0.6	-8.6	-33.6	1.6	/	8.3	1.4
52	O=C(COC(=O)CNC(=O)c1cccc(OC(F)F)c1)NCc1ccc2c(c1)OCO2	-4.7	40.3	/	/	/	-3.0	-2.8
53	Cc1cccc(OCc2nnc(SCC(=O)Nc3ccc(C)c(Cl)c3)o2)c1	-3.0	-1.9	-7.1	1.4	-12.0%	-1.3	2.5
54	O=C(N1CCOCC1)N1CCC(n2nnc3ccccc32)CC1	2.1	-14.5	3.0	?	-3.8%	1.1	0.4
55	O=S(=O)(c1ccc(Cl)cc1)N1CCCN(c2nc3ccc(Cl)cc3s2)CC1	-3.3	-1.3	2.6	4.2	/	-2.2	-6.3
56	O=C(NCCc1ccccc1)C1CCN(Cc2cccc3ccccc23)CC1	-0.2	-3.0	-17.7	6.7	/	7.2	4.2
57	Cc1cccc(N2CCN(CC(O)COc3ccccc3Cl)CC2)c1 (configuration not stated)	0.3	/	-6.6	?	16.4%	1.4	-8.1
58	COc1ccc(-n2c(=O)c(NC(=O)c3ccccc3)c3n(c2=S)CCCCC3)cc1	2.0	-6.4	6.6	-3.6	-2.3%	-11.4	-2.9
59	Cc1ccccc1-n1c(SCc2c(C)noc2C)nnc1-c1cccnc1	-27.7	-13.1	3.4	-4.1	1.4%	6.4	5.7
60	CC(OC(=O)c1ccccc1NCc1ccco1)C(=O)Nc1ncc(Cl)cc1Cl (configuration not stated)	0.3	-4.2	-11.1	1.8	4.4%	0.0	-0.6
61	CCc1cccc(NC(=O)CCS(=O)(=O)c2ccc(Br)cc2)c1	-20.3	5.5	2.7	4.0	14.7µM*	-0.8	0.8

# Three entries already listed, arranged by length of the SMILES, ascending.
no.	Compound	HNF4A DNA FP	ALR inh	Calb FLC	RanGTP-Impb inh	Vif A3G	LANA-H2A inh	Beta2AR agonist
53	Cc1cccc(OCc2nnc(SCC(=O)Nc3ccc(C)c(Cl)c3)o2)c1	-3.0	-1.9	-7.1	1.4	-12.0%	-1.3	2.5
60	CC(OC(=O)c1ccccc1NCc1ccco1)C(=O)Nc1ncc(Cl)cc1Cl (configuration not stated)	0.3	-4.2	-11.1	1.8	4.4%	0.0	-0.6
52	O=C(COC(=O)CNC(=O)c1cccc(OC(F)F)c1)NCc1ccc2c(c1)OCO2	-4.7	40.3	/	/	/	-3.0	-2.8
